Bfl-1 A1 inh = inhibitors of the anti-apoptotic protein A1, read as caspase activation; AID 2462; MEF A1-2A-BIM cells, Caspase-Glo 3/7 luminescence, 3 h; percent of clofoctol response, vehicle zero; caspase activation, % (no concentration beside the values); hit rate 0.066% among 330,000;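 active means over half of replicate activation scores above 10%, or exactly half above 10 with the replicate mean above 10; inconclusive means replicate mean below 10 yet half the replicates above 10; inactive means over half of replicates below 10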;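 further: wells of about 30 µL received 50 nL stock; many hits fall short of the cut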
UCH37 inh = inhibitors of human deubiquitinating enzyme UCH37. Q9Y5K5. purified proteasome/UCH37, Ub-AMC cleavage fluorescence. inhibition, % (concentration not given with the values). hit rate 0.33% among 330,000. AID 588478;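 active means mean of two replicates above 20%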;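 further: 0% = compound-free wells with enzyme and 100% = wells lacking proteasome; stock transfer was 100 nL into about 20 µL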
Target sequence (Q9Y5K5 whole entry, looked up): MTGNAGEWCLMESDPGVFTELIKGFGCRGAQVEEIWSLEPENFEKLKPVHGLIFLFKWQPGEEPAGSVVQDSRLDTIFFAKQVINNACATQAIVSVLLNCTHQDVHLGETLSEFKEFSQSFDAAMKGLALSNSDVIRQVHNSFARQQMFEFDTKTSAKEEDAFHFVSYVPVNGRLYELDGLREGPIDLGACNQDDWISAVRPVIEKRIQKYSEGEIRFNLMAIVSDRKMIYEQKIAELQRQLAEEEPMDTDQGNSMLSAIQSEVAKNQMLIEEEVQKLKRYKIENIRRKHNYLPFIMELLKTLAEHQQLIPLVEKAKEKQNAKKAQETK
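Signal – fluorescence, ex 355 nm, em 460 nm · System – Proteasome-bound UCH37 · Input – 0.15 nM proteasome as dispensed · Timing – 30 min preincubation with enzyme, 25 min cleavage at room temperature · Read-out basis – percent inhibition of cleavage signal versus uninhibited and no-proteasome wells · Medium – Tris-HCl pH 7.4 with ATP-MgCl2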
E coli growth = inhibitors of Escherichia coli growth | OD600, 23 h; hits give low values | OD600 absorbance (test concentration not listed) | hit rate 0.21% among 330,000;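 active means OD600 absorbance below the run mean of sample wells minus 3.6 SD, in any replicate, cut at about 0.56 in these data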;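 further: stock transfer was 300 nL into about 60 µL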
LANA-H2A inh = blocks KSHV LANA binding to histone H2A/H2B. Q9QR71. cell-free LANA-H2A/H2B peptide, fluorescence polarization. inhibition, % (concentration not given with the values). hit rate 0.6% among 320,000. AID 2629; in the data active means inhibition mostly above about 10%, no sharp cut-off; inactive means mostly below about 6.7%;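 further: stock transfer was 7.5 nL into about 10 µL; 0% = median of vehicle wells and 100% = median of positive control wells; one replicate is shown; the record names a cut of 25% in any replicate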
HNF4A DNA FP = change in binding of human HNF4 alpha to DNA; P41235; HNF4a-FITC DNA binding, fluorescence polarization, 1 h; activity change, % at 10 µM; hit rate 0.3% among 360,000; in the data active means activity change above about 30%, passing the limit was not always enough;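 further: controls were the assay level and a saturating level of protein; the project sought stronger binding though the title names inhibitors; some compounds called inactive have numbers as strong as hits; positive values seem to mean higher polarization but the record does not say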
Target sequence (P41235 whole entry, looked up): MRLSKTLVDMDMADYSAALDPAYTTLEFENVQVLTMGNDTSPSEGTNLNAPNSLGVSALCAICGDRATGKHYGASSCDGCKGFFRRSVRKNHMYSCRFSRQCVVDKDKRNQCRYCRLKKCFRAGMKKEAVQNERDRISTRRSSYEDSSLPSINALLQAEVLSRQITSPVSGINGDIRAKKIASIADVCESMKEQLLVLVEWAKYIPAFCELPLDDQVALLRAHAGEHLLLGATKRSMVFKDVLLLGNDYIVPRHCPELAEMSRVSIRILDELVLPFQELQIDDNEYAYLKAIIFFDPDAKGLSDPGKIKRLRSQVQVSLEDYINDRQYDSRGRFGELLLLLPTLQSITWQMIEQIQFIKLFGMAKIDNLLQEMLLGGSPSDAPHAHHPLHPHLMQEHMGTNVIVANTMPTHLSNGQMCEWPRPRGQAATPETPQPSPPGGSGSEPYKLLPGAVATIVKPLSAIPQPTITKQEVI
Vif A3G = inhibitors of Vif binding to APOBEC3G peptide, primary screen, biochemical, TR-FRET, GST-Vif 1-94, biotin-A3G peptide, dose response retest (AID 1117319); TR-FRET GST-Vif / biotin-A3G peptide binding; higher % means a stronger effect; test concentration not given here; strong numbers were not always called active; one-dose inhibition, %; IC50 in µM for titrated hits; hit rate 0.57% among 260,000;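 active means above the screen mean plus three standard deviations and confirmed in dose response; inconclusive means results disagree or hit not tested in dose response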;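 further: Vif residues 1-94 fused to GST binding biotinylated APOBEC3G peptide 110-148; 0% = full assay without inhibitor and 100% = GST in place of GST-Vif; retest series ran down from 100 µM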
Beta2AR agonist = activates human beta-2 adrenergic receptor causing internalization; Am2.2-beta2AR cells, FAP receptor internalization, flow cytometry; reference of the scale not given here; hit rate 0.43% among 340,000; response, % (no concentration beside the values);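 active means response above a set limit, near 3 SD of response in nonfluorescent compounds, cut at about 42% in these data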;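 further: stock transfer was 100 nL into about 11 µL; a reference agonist was the positive control; negative values mostly stem from fluorescent compounds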
The depositor's hits bear a star; ? = inconclusive; / = no result given; & = joins results of further samples.

SMILES	Bfl-1 A1 inh	UCH37 inh	E coli growth	LANA-H2A inh	HNF4A DNA FP	Vif A3G	Beta2AR agonist
Cn1nnnc1SCCNC(=O)C1CCC(=O)N(Cc2ccccc2F)C1 (stereo unspecified)	-1.8	0.0	0.72	2.2	0.0	/	2
O=S(=O)(Nc1ccccc1OC(F)F)c1ccc(S(=O)(=O)N2CCCC2)cc1	0.8	2.9	0.68	0.3	-2.3	-7%	4
CCN1C[C@@H]2[C@@H]3C(=O)N(Cc4ccccc4)C(=O)[C@@H]3[C@](Cc3ccccc3)(C1=O)N2C(=O)c1ccc(Br)cc1	/	0.7	/	/	0.8	/	-8
COc1ccc(NC(=O)N(C)C[C@@H]2Oc3c(NC(=O)Nc4c(C)noc4C)cccc3C(=O)N([C@@H](C)CO)C[C@@H]2C)cc1	0.3	0.1	0.73	2.2	-0.5	/	-4
O=C(O)c1cc(S(=O)(=O)O)ccc1O	-0.9	-3.4	0.78	-2.3	0.0	10%	-1
O=C(NC1CCCCC1)N1CCc2ccccc21	-0.6	2.5	0.69	-2.4	-2.9	2%	5
CC(C)C(=O)Nc1ccc(NC(=O)c2cccc(F)c2)cn1	-2.5	5.0	0.71	1.5	2.4	0%	-6
O=C(O)c1ccc2c(c1)C(=O)/C(=C\c1ccco1)C2=O	-0.4	13	0.72	4.3	-35	/	-2
COC(=O)Nc1c(-c2ccccc2)nc2ccc(Cl)cn12	0.2	-26	0.68	-0.7	4.1	/	2
Cc1ccc(-n2c(C)cc(/C=N\NC(=O)CC(=O)NC(C)C)c2C)cc1	-0.2	/	/	4.2	2.6	-4%	20
COc1cccc(N2CCN(S(=O)(=O)c3ccc4nc(-c5ccccc5)[nH]c4c3)CC2)c1	-0.5	1.1	0.78	-0.1	-0.2	20%	-2
CC(C)(C)C(=O)Nc1nc2c(s1)COc1ccccc1-2	0.9	0.2	0.76	6.5	2.4	5%	18
CC(C)n1c(N2CCN(S(=O)(=O)c3cccc([N+](=O)[O-])c3)CC2)nc2ccccc21	0.9	4.6	0.67	1.4	-2.0	/	0
CC(=O)OCCN1C(=O)c2cccnc2C1=O	-0.3	2.1	0.73	1.7	1.1	-1%	-1
CCN(CC)CC(O)COc1ccccc1C(=O)CCc1ccccc1 (stereo unspecified)	0.7	0.9	0.64	1.3	2.1	/	4
CCN(C(=O)COC(=O)c1c(NC(C)=O)sc(C)c1C)C1CCS(=O)(=O)C1 (stereo unspecified)	-1.5	-0.7	0.71	-1.8	-2.0	-7%	-1
c1ccc(CCNc2nnnn2-c2ccccc2)cc1	0.4	3.2	0.71	-1.5	-7.1	-10%	-6
CS(=O)(=O)c1ccc(Sc2nc3ccccc3[nH]2)c([N+](=O)[O-])c1	1.6	4.6	0.72	8.4	3.5	9%	2
O=C(CSc1nc2ccc(Cl)cc2[nH]1)NCCc1ccccc1	0.4	2.9	0.66	1.6	-2.7	12%	7
CSc1nnnn1-c1c(C)cccc1C	-0.1	3.0	0.69	2.0	1.1	-8%	4
C=C(C)CNC(=S)NNC(=O)c1ccc(Br)cc1	-0.5	-0.1	0.63	1.1	-0.8	/	4
O=C(O)c1ccc(/C=N/n2c(C3CCCCC3)n[nH]c2=S)cc1	-0.6	/	/	-0.2	0.4	/	-9
CCOC(=O)c1sc(NS(=O)(=O)c2ccccc2)nc1C	-1.0	4.5	0.69	-0.5	1.5	-1%	0
COC(=O)c1ccc2nc(C)cc(Nc3ccc(N(C)C)cc3)c2c1	0.0	11	0.74	6.7	0.1	28%	-6
COc1cccc(CNC(=O)CCC2CCCN(C(=O)CCc3c(C)noc3C)C2)c1 (stereo unspecified)	-1.2	-2.3	0.69	1.9	-1.2	/	2
CC1CN(c2cc(=O)n(Cc3ccc(F)cc3)c(=O)[nH]2)CC(C)O1 (stereo unspecified)	0.2	3.2	0.76	-8.3	0.6	-5%	16
Cc1ccccc1NC(=O)Cn1c(=O)oc2ccccc21	-0.2	0.2	0.64	-5.8	-2.7	4%	-9
CC(=O)Nc1cccc(OCC(=O)NC(C)C(C)C)c1 (stereo unspecified)	0.7	2.0	0.74	-6.2	1.4	-1%	3
O=C(C1CCCN1S(=O)(=O)c1ccc(Cl)cc1)N1CCN(c2ccccc2)CC1 (stereo unspecified)	0.4	2.7	0.64	0.8	-1.4	4%	-3
COc1ccccc1/C=C/C(=O)OCC(=O)c1c[nH]c2ccccc12	0.1	-5.7	0.65	-1.2	-1.9	-11%	3

Sorted by the number under LANA-H2A inh (ascending): some entries from above
Structure,UCH37 inh,E coli growth,LANA-H2A inh,HNF4A DNA FP,Vif A3G,Beta2AR agonist
CC(=O)Nc1cccc(OCC(=O)NC(C)C(C)C)c1 (stereo unspecified),2.0,0.74,-6.2,1.4,-1%,3
Cc1ccccc1NC(=O)Cn1c(=O)oc2ccccc21,0.2,0.64,-5.8,-2.7,4%,-9
CCN(C(=O)COC(=O)c1c(NC(C)=O)sc(C)c1C)C1CCS(=O)(=O)C1 (stereo unspecified),-0.7,0.71,-1.8,-2.0,-7%,-1
O=C(CSc1nc2ccc(Cl)cc2[nH]1)NCCc1ccccc1,2.9,0.66,1.6,-2.7,12%,7

Additional entries follow.
SMILES	Bfl-1 A1 inh	UCH37 inh	E coli growth	LANA-H2A inh	HNF4A DNA FP	Vif A3G	Beta2AR agonist
CCOc1ccc(N)cc1OC	-0.3	4.6	0.69	/	-0.6	30%	7
Cc1cc(C)c(NC(=O)CN(C)C(=O)c2ccc(OCc3ccccc3)cc2)c(C)c1	-0.9	3.2	0.7	/	0.6	1%	-4
COc1ccc(Cc2nnc(NC(=O)CSc3ccccc3)s2)cc1	-1.4	0.6	0.68	-4.7	0.1	49%	-8
COc1ccc(C)cc1NC(=O)CN1C(=O)c2ccccc2S1(=O)=O	0.2	7.8	0.75	-3.8	1.5	3%	8
CCc1cc2c(COC(=O)c3cc(S(=O)(=O)N4CCOCC4)ccc3F)cc(=O)oc2cc1O	-1.5	-78	0.67	-3.8	1.7	-14%	26
Cc1cc(C)c(C)c(S(=O)(=O)N[C@@H](C)C(=O)OC(C)C(=O)NC(N)=O)c1C (stereo partly specified)	-0.3	-0.7	0.65	0.2	2.9	/	-4
O=C(COC(=O)c1cn(-c2ccccc2)nc1-c1cccnc1)NC1CC1	-0.1	1.5	0.66	0.6	-2.5	13%	6
COc1ccccc1N1CCN(CC(=O)Nc2ccc3c(c2)OCCO3)CC1	-0.7	0.3	0.65	-0.1	0.5	0%	7
O=C(/C=C/c1ccco1)Nc1cc(Cl)ccc1C(=O)O	-4.7	16	0.62	-2.8	-6.1	?	-3
O=C(NCC1(N2CCOCC2)CCCCC1)c1ccc(S(=O)(=O)Nc2ccccc2F)cc1	-0.1	6.0	0.69	5.1	-3.5	/	6
CN1OC[C@@H]2CN(C(=O)C(C)(C)C)[C@H](c3cccc(-c4ccccc4)c3)C[C@@H]21	/	/	/	/	0.5	-5%	-5
O=C(N/N=C/c1ccncc1)c1sc2ccccc2c1Cl	0.0	/	/	2.0	-1.0	/	1
CC1(C)Cc2c(sc(NC(=O)c3ccc(C(=O)c4ccccc4)cc3)c2C(N)=O)C(C)(C)N1	0.2	1.0	0.68	-46	1.1	2%	26
COc1cc(OC)nc(NC(=O)NS(=O)(=O)c2ccc(F)cc2)n1	-0.9	0.0	0.68	-2.1	6.6	12%	5
Cc1ccc(C)c(C(C)NC(=O)c2ccccc2Br)c1 (stereo unspecified)	-0.8	0.0	0.63	2.6	-1.6	7%	-3
O=C(COc1ccc(Cl)cc1)OCC(=O)N1CCOCC1	0.8	1.5	0.66	2.6	-1.5	/	3
CCOC(=O)N1CCN(Cc2nc3cc(NC(=O)CC)ccc3n2CC)CC1	0.6	1.9	0.69	1.4	-2.1	4%	-5
COc1ccc(OC)c(NC(=O)c2ccc(CSc3ncccn3)cc2)c1	-0.8	3.9	0.69	2.9	0.1	-3%	-10
CCOC(=O)N1CCN(C(=O)CSCc2ccccc2C)CC1	0.1	0.6	0.69	0.2	0.1	2%	4
O=C(O)c1cccc(NC(CNS(=O)(=O)c2ccc(Cl)cc2)c2ccccc2)c1 (stereo unspecified)	0.0	-5.9	0.66	-0.1	-1.0	29%	-271
NS(=O)(=O)c1ccc(CNC(=O)Cc2c(F)cccc2Cl)cc1	0.2	-0.2	0.7	-3.3	-11	23%	8
COc1ccc(C(C)(C)C)cc1NC(=O)c1ccc2c(c1)SC1=NS(=O)(=O)CCN12	-0.4	-2.6	0.64	-3.3	1.8	-28%	-2
CCC(Sc1nc(=O)cc(N)n1-c1cccc(C)c1)C(=O)Nc1cc(C)on1 (stereo unspecified)	0.5	1.8	0.67	-0.7	7.7	0%	3
CCO[C@@H]1OC(C(=O)N2CCCCCCC2)=C[C@H](c2csc3ccccc23)[C@H]1CCCO	0.7	4.5	/	11	1.1	12%	-12
Cc1nccc(-c2ccc(-n3cnc4ccccc43)cc2)n1	0.9	4.0	0.67	-1.8	-1.4	3%	-1
O=C(Oc1cccc(/C=N/Nc2nc(Nc3ccccc3)nc(N3CCOCC3)n2)c1)c1ccco1	3.5	/	/	-1.9	5.1	-9%	11
O=C(Cn1cnc2c(NCc3ccccc3)ncnc21)NCc1nc2ccccc2[nH]1	/	2.4	0.7	/	2.0	-2%	-3
NC(=O)c1ccc[n+](CC(=O)Nc2ccccc2C(=O)O)c1	2.2	1.8	0.67	-3.9	-4.2	/	2
CN1CCN(NC(=O)c2ccc(S(=O)(=O)N3CCCCCC3)cc2)CC1	1.3	1.1	0.74	-7.2	0.4	-2%	0
Cc1cc(NC(=O)CSc2nc(-c3cccs3)cc(C(F)(F)F)n2)no1	0.0	-13	0.66	4.7	-0.9	-17%&-18%	-4
CN(C)S(=O)(=O)c1ccc(Cl)c(NC(=O)COC(=O)CNS(=O)(=O)c2c(F)cccc2F)c1	/	-1.0	0.67	/	-2.5	/	-1
CCOC(=O)C1(C)/C(=N/Nc2ccc(S(N)(=O)=O)cc2)C(=O)C(=O)N1c1ccccc1 (stereo unspecified)	-1.1	16	0.65	10	5.3	30%	3
Cc1ccc(S(=O)(=O)NN)c(C)c1N1CCCC1=O	0.4	3.7	0.69	1.1	1.7	?	-2
CCc1nnc(NS(=O)(=O)c2ccc(NS(=O)(=O)c3ccccc3[N+](=O)[O-])cc2)s1	0.0	-0.2	0.66	1.4	1.6	-2%	1
CCCc1nnc(SCC(=O)NC2CC2)n1CC	-0.2	/	/	3.0	3.0	/	-1
O=C(NCc1ccccc1Cl)C1CCCN(S(=O)(=O)c2cccc3nsnc23)C1 (stereo unspecified)	0.0	0.4	0.64	-4.8	2.7	0%	-7
Cc1cc(NC(=O)Cn2c(=O)c3c(ncn3CC(C)C)n(Cc3ccccc3)c2=O)no1	0.2	3.2	0.68	1.0	0.5	16%	2
Clc1ccc(Oc2cnns2)cc1Cl	0.3	-0.6	0.67	-0.3	2.1	1%	2
Cc1cc(C(=O)OCC(=O)NCc2ccc(F)cc2)c2ccccc2n1	-0.3	-2.0	0.67	0.5	-0.5	0%	-1
CC(NC(=O)C1CCN(C(=O)c2ccc(F)cc2)CC1)c1ccc(S(N)(=O)=O)cc1 (stereo unspecified)	-0.1	3.0	0.73	-0.2	5.0	-4%	-2
CN(C(=O)CSc1nnc(-c2ccco2)n1N)C1CCCCC1	0.0	4.1	0.69	2.8	2.1	-7%	-21
O=C(O)c1cnc(-c2ccccc2)nc1Oc1ccc(Cl)cc1	-0.3	5.3	0.67	7.8	-2.0	-5%	0
Cc1cccc(CCNC(=O)c2cccc3c2C(=O)N(C2CCCCC2)C3)c1	0.2	5.8	0.72	0.0	-3.5	/	-10
